Assay outcomes deposited in PubChem by National Center for Advancing Translational Sciences (NCATS).
Bst PK mod – Pyruvate Kinase. partly purified Bacillus stearothermophilus pyruvate kinase, luminescence ATP production; ribose 5-phosphate activator present at AC10. Potency, µM. 51,000 compounds, 1.2% hits. AID 361, 2006; in the data active means potency below about 11 µM; inconclusive means mostly about 12 µM to 25 µM; inactive means weaker than that;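 the screen sought inhibitors and activators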;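 also: potency is read from the fitted curve at half-maximal effect; scaled between full activation by ribose 5 phosphate and full inhibition by luteolin; about four in five hits inhibit and the cells do not say which; series up to 57 µM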
TsaE inh – qHTS Assay for Inhibitors of YjeE; tRNA threonylcarbamoyladenosine biosynthesis protein TsaE (Escherichia coli (strain …; purified YjeE, fluorescence polarisation of a bound ADP probe; Potency, µM; 71,000 compounds, 0.05% hits; active = well fitted falling curve; inconclusive = weaker or top-dose-only fall, or a rising curve; inactive = flat or poorly fitted curve;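 also: top concentration of the series not given in the record; excess ADP was the control for the full effect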
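Purified YjeE (10 uM) with BODIPY Texas Red-labeled ADP probe (2 uM); compounds pin-transferred, 15 min at room temperature. Binding inhibition read as decreased fluorescence polarization; ADP titration as control.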
* = called active by the depositor; i = inactive; ? = inconclusive; · = not tested or not shown. Not all compounds are listed; count on the stated rates, not on these rows.

cpd | Compound | Bst PK mod | TsaE inh
1 | O=C(c1ccc(NC2=NC3CS(=O)(=O)CC3S2)cc1)N1CCc2ccccc2C1 (centres undefined) | · | i
2 | CCOc1ccc(Nc2oc(-c3cccs3)nc2C#N)cc1 | >57 | i
3 | O=C(CCNS(=O)(=O)c1ccccc1F)NCc1ccc2c(c1)OCO2 | >57 | i
4 | CC(C)CN1CC2(CCN(C(=O)c3csnn3)CC2)C1 | · | i
5 | O=C(NCCN1CCOCC1)c1ccc(=O)oc1 | >11.4 | ·
6 | C=CCn1c(-c2ccoc2)n[nH]c1=S | >57 | i
7 | COc1ccc(NC(=O)c2ccc3c(c2)OCO3)cc1Cl | · | i
8 | CCc1ccccc1NC(=O)CCc1nc(-c2ccc(C)cc2)no1 | >57 | i
9 | CCOc1ccc2[nH]c(=O)c(CN(CCO)C(=O)CC)cc2c1 | >57 | i
10 | CC(C)(C)C(=O)COC(=O)c1cccc(NC(=O)c2ccco2)c1 | >57 | i

Next part:
cpd | Compound | Bst PK mod | TsaE inh
11 | N#CCCn1c(=O)c(-c2cc(F)cc(F)c2)nc2cnc(Nc3ccccc3)nc21 | · | i
12 | Cc1ccc(C)c(N2CCN(S(=O)(=O)c3ccc4c(c3)CCC(=O)N4)CC2)c1 | >57 | i
13 | O=C(NCc1cccc(C(F)(F)F)c1)C1CCCN(c2ncccn2)C1 (centres undefined) | >57 | i
14 | COc1ccccc1OCC(=O)Nc1cccc(C(=O)N2CCOCC2)c1 | >57 | i
15 | COc1ccc(Cc2nnc(SCC(=O)NCC3CCCO3)o2)cc1 (centres undefined) | >57 | i
16 | Cc1oc(-c2cccs2)nc1CS(=O)CC(=O)NCCCOC(C)C (centres undefined) | >57 | i
17 | CCC(C(=O)Nc1ncn[nH]1)(C(F)(F)F)C(F)(F)F | >25.6 | ·
18 | Cc1ccc(CCN2CC(C(=O)NCc3ccco3)CC2=O)cc1 (centres undefined) | >57 | i
19 | COc1ccc(-c2cc(O)cc(O)c2)cc1 | ? | i
20 | CCOc1ccc(-n2nnnc2SCC(=O)c2ccccc2)cc1 | >57 | i

New compounds follow
cpd | Compound | Bst PK mod | TsaE inh
21 | O=C1Nc2cc(C(=O)N3CCN(Cc4ccccc4)CC3)ccc2SC1N1CCOCC1 (centres undefined) | >57 | i
22 | O=C(O)c1cccc(SSc2cccc(C(=O)O)c2)c1 | · | i
23 | O=C(CSc1nn(-c2ccccc2)c(=S)s1)Nn1cnnc1 | >57 | i
24 | NC(=O)C[C@@H]1N[C@]2(C(=O)Nc3ccccc32)[C@@H]2C(=O)N(C3CCCCC3)C(=O)[C@H]12 | >57 | i
25 | N#CC1=C2SCC(O)(c3ccccc3)N2C(=O)CC1c1ccccc1 (centres undefined) | >25.6 | ·
26 | COc1ccc(S(=O)(=O)N2CCC(C(=O)Nc3ccc(OC)c(OC)c3)CC2)cc1C | >57 | i
27 | Cc1nnc(SCc2ccccc2)n1N | >57 | i
28 | O=C(CN1C(=O)COc2ccccc21)Nc1ccc2c(c1)OCCO2 | >57 | i
29 | CCCC(=O)Nc1ccc(N2CCN(C(=O)c3ccccc3C)CC2)cc1 | >57 | i
30 | Cc1ccc(N2CC(C(=O)NCCc3ccc(S(N)(=O)=O)cc3)CC2=O)cc1 (centres undefined) | >57 | i

Further compounds follow.
cpd | Compound | Bst PK mod | TsaE inh
31 | O=C1[C@@H]2C(Cc3ccc(O)cc3)NC3(C(=O)Nc4ccc(F)cc43)[C@@H]2C(=O)N1c1ccccc1 (some centres undefined) | >57 | i
32 | O=C(c1ccco1)N1CCC2(CCCN(c3ccccc3)C2)CC1 | · | i
33 | c1cncc(CNc2cc(-c3ccoc3)ncn2)c1 | · | i
34 | NC(=Nc1ccccc1)NC(=O)c1nc(Cl)c(N)nc1N | · | i
35 | COc1ccccc1CN1CCC2(CCNCC2)CC1 | · | i
36 | O=C(O)CCc1ccc(-c2cccs2)n1NC(=O)c1ccc(Cl)cc1 | · | i
37 | O=C(CCCn1c(=O)[nH]c2ccccc2c1=O)N1CCN(c2ccccn2)CC1 | · | i
38 | Cc1nc(=O)c(-c2ccccc2)c(C)n1Cc1ccccc1 | >57 | i
39 | C=CCNc1nc(Nc2ccc(OC)cc2OC)nc(OCC)n1 | >57 | i
40 | CC(C)CC1NC(=O)N(CC(=O)N2CCN(S(=O)(=O)c3ccc4ccccc4c3)CC2)C1=O (centres undefined) | >57 | i

Following part.
cpd | Compound | Bst PK mod | TsaE inh
41 | CCOc1ccccc1NC(=O)CN(c1ccc(OC)cc1)S(=O)(=O)c1c(C)noc1C | >57 | i
42 | CCOC(=O)C(NC(C)=O)(Nc1ccc(S(=O)(=O)Nc2nccs2)cc1)C(F)(F)F (centres undefined) | >57 | i
43 | O=C1CCC(C(=O)N(c2ccccc2)C2(C(=O)NC3CCCCC3)CCCCC2)N1 (centres undefined) | >57 | i
44 | CC(=O)Oc1c(Cl)c(N2CCOCC2)c(OC(C)=O)c2ccccc12 | · | i
45 | Cc1ccc(NC(=O)c2ccc(OC(=O)c3ccco3)cc2)cc1 | >57 | i
46 | O=C(c1cc(S(=O)(=O)N2CCOCC2)ccc1F)N1CCN(Cc2ccccc2)CC1 | >57 | i
47 | CC(=O)c1ccc(NC(=O)N[C@@H](Cc2ccccc2)C(=O)O)cc1 | >57 | i
48 | Cc1cc(C)nc(SCc2nnc(SCC(=O)NCc3ccco3)n2-c2ccccc2)n1 | >57 | i
49 | CCOC(=O)Cc1csc(NC(=O)C(C)(C)C)n1 | >57 | i
50 | Cc1nc(N2CCC(C)CC2)c2c(C)c(C(=O)O)sc2n1 | >57 | i

(cont.)
cpd | Compound | Bst PK mod | TsaE inh
51 | COc1ccc(NC(=O)N2CC3(CCN(C(=O)c4csnn4)CC3)C2)cc1 | · | i
52 | CCn1c(-c2ccc(C(C)(C)C)cc2)n[nH]c1=S | >57 | i
53 | NC(=O)c1ccc(-n2nnnc2SCc2ccc(F)cc2)cc1 | >57 | i
54 | CCn1c(=O)cc(OCC(=O)N2CCCCCC2)c2ccccc21 | >57 | i
55 | COc1cccc2cc(C(=O)OC3CCN(C)CC3)c(=O)oc12 | · | i
56 | CSc1ccccc1NC(=O)c1ccoc1C | >57 | i
57 | Cc1ccc(CCNC(=O)C2CCCN(S(=O)(=O)c3c(C)noc3C)C2)cc1 (centres undefined) | >57 | i
58 | CCCc1cc(=O)n2[nH]c(C)cc2n1 | >57 | i
59 | O=C(CNC(=O)c1ccco1)OCN1C(=O)c2ccccc2C1=O | >57 | i
60 | COC(=O)CNc1nc(C2CC2)nc2c1nnn2Cc1ccccc1Cl | >57 | i

Further structures follow:
item | compound | Bst PK mod | TsaE inh
61 | O=C(Cn1c(=S)nc2ccccn21)N1CCc2ccccc2C1 | >57 | i
62 | COc1cccc(NC(=O)Cc2c(O)c3ccccc3[nH]c2=O)c1 | >57 | i
63 | Clc1ccccc1OCc1nc(-c2ccncc2)no1 | · | i
64 | CC1CCN(C(=O)CCc2nc3cc(S(=O)(=O)N(C)C)ccc3n2C)CC1 | >57 | i
65 | COc1cc(C(=O)OCCN2CCOCC2)ccc1O | >57 | i
66 | COc1ccc(-c2noc(CN(C(=O)c3c(-c4ccccc4Cl)noc3C)C(C)C)n2)cc1 | >57 | i
67 | COc1ccc(C2CC(=O)c3cnc(NC(=O)c4cc(OC)cc(OC)c4)nc3C2)cc1 (centres undefined) | >57 | i
68 | O=C(CSc1cn(CCNC(=O)c2cccs2)c2ccccc12)NCC1CCCO1 (centres undefined) | · | i
69 | CN1CCN(C(=O)c2cnn3c(C(F)(F)F)cc(-c4ccc5c(c4)OCO5)nc23)CC1 | >57 | i
70 | CCOC(=O)c1ccc(S(=O)(=O)Nc2cc(C(C)(C)C)no2)cc1 | >57 | i
71 | O=C(CN1C(=O)COCC1=O)N1CCOCC1 | · | i
72 | Nc1nc(Nc2ccccc2)nc2c1ncn2[C@@H]1O[C@@H](CO)[C@H](O)[C@H]1O | · | i
73 | CCOC(=O)N1CCC(NC(=O)C2CCCN(S(=O)(=O)c3cccnc3)C2)CC1 (centres undefined) | · | i
74 | COCCNC(=O)CN(C)S(=O)(=O)c1ccc(Br)cc1 | · | i
75 | Cc1nc2nc(CSc3nc4ccccc4s3)cc(=O)n2[nH]1 | ? | i

Carrying on.
item | compound | Bst PK mod | TsaE inh
76 | Cc1cnc(CNc2nc(-c3cccnc3)nc3ccccc23)cn1 | · | i
77 | Cc1ccc(CCN2CC(C(=O)NCCCN3CCN(C)CC3)CC2=O)cc1 (centres undefined) | · | i
78 | CCOC(=O)c1cccc(NC(=O)CCS(=O)(=O)c2cccs2)c1 | >57 | i
79 | NC1C2CN(c3nc4c(cc3F)c(=O)c(C(=O)O)cn4-c3ccc(F)cc3F)CC12 (centres undefined) | >57 | i
80 | O=C1CCC(C(=O)OCC(=O)C23CC4CC(CC(C4)C2)C3)N1 (centres undefined) | >57 | i
81 | COc1cc([C@H]2c3cc4c(cc3[C@@H](O)[C@@H]3COC(=O)[C@H]23)OCO4)cc(OC)c1OC | · | i
82 | COc1ccc(CCNC(=O)CCn2c(=O)[nH]c3cc(OC)c(OC)cc3c2=O)cc1OC | >57 | i
83 | CC(C)CCOc1cccc(C2c3c(oc4ccccc4c3=O)C(=O)N2CCCN2CCOCC2)c1 (centres undefined) | · | i
84 | CCOC(=O)c1c(NC(=O)CN2CCOCC2)sc2c1CC(C)(C)OC2 | >25.6 | ·
85 | Cc1nnc2sc(-c3ccccn3)nn12 | >57 | i
86 | CCOc1ccc(CN2CCC(C(=O)N3CCN(c4ccccc4F)CC3)CC2)cc1OC | >57 | i
87 | CC(=O)N1[C@H](C)C=C[C@]1(Cc1ccccc1)C(=O)NCCc1c[nH]c2ccccc12 | · | i
88 | O=C(O)CCn1ccnc1-c1ccccc1 | >57 | i
89 | CC(NC(=O)COC(=O)CCNC(=O)c1ccco1)C12CC3CC(CC(C3)C1)C2 (centres undefined) | >57 | i
90 | Cc1cccc(NC(=O)C2CCCN2S(=O)(=O)c2cccc3cccnc23)c1 (centres undefined) | · | i

Next section:
item | compound | Bst PK mod | TsaE inh
91 | Cn1c(Cn2nnc3ccccc32)nnc1SCC(=O)N1c2ccccc2CCc2ccccc21 | >57 | i
92 | Cn1c(NC(=O)c2ccc(C(C)(C)C)cc2)cc(=O)n(C)c1=O | · | i
93 | COC(=O)c1c(C(=O)OC)c2ccncn2c1Cl | >57 | i
94 | O=C1N(S(=O)(=O)c2ccccc2F)C(=O)C2(CCCC2)N1S(=O)(=O)c1ccccc1F | >57 | i
95 | Cc1ccccc1CS(=O)(=O)CCC(=O)NCCCN1CCN(c2ccccc2F)CC1 | >57 | i
96 | O=C(O)C1CC(=O)n2c(nc3ccccc32)S1 (centres undefined) | >25.6 | ·
97 | O=C(CCCn1c(=O)c2ccccc2n(CC(=O)NCc2ccco2)c1=O)NCc1ccco1 | >57 | i
98 | CC(=O)N1CCN(S(=O)(=O)c2ccc(C)cc2)C1c1ccc(N(C)C)cc1 (centres undefined) | · | i
99 | Cn1c(N2CCN(C(=O)Nc3ccc(C(F)(F)F)cc3)CC2)nc2ccccc21 | >57 | i
100 | O=C1C(C=NCCCn2ccnc2)=C(O)c2ccccc21 | · | i
101 | CCOC(=O)c1c(NC(=O)OC)sc(C(=O)N(C)C)c1C | · | i
102 | COC(=O)c1[nH]c2ccc(C)cc2c1NC(=O)Nc1ccccc1OC | >57 | i
103 | CCn1c(SCC(=O)Nc2ccc(C(=O)OC)cc2)nnc1-c1cccs1 | >57 | i
104 | CCOC(=O)Nc1ccc(OC)cc1S(=O)(=O)N1CCCCC1 | >57 | i
105 | CCOc1cc(C)c(C(C)C)cc1S(=O)(=O)NCc1ccccn1 | >57 | i

(list continues)
item | compound | Bst PK mod | TsaE inh
106 | CC(C)c1ccc(N2CC(C(=O)Nc3nccs3)CC2=O)cc1 (centres undefined) | >57 | i
107 | COc1ccccc1NC(=O)N(Cc1ccc2c(c1)OCO2)Cc1nc2ccccc2c(=O)[nH]1 | >57 | i
108 | O=C(NCC1CCCO1)C(C(=O)c1ccccc1)n1cc(Cl)ccc1=O (centres undefined) | >57 | i
109 | CCSc1nc(-c2cccs2)nc2c1c(=O)n(C)c(=O)n2C | · | i
110 | O=C(CN1CCCCCC1)Nc1ccc(F)c(F)c1F | >57 | i
111 | O=C(CSc1nc2ccccc2[nH]1)c1cccs1 | · | i
112 | CCNc1ncc2nc(-c3cc(F)cc(F)c3)c(=O)n(-c3ccc(OC)cc3)c2n1 | · | i
113 | O=C(COc1ccc(S(=O)(=O)NC2CCCCC2)cc1Cl)NCc1cccnc1 | >57 | i
114 | Cc1ccnc(SCC(=O)N2CCC(C(N)=O)CC2)n1 | >57 | i
115 | Fc1ccccc1N1CCN(C(c2ccncc2)c2nnnn2C2CCCC2)CC1 (centres undefined) | >57 | i
116 | Cc1ccc(S(=O)(=O)N2CCN(Cc3cc(C(C)C)ccc3O)CC2)cc1 | >57 | i
117 | Cc1ccccc1-n1ncc2c(SCC(=O)NCc3cccs3)ncnc21 | >57 | i
118 | C1=C(C(c2nnnn2C2CCCCC2)N2CCCCC2)COc2ccccc21 (centres undefined) | >57 | i
119 | CC(C)(C)c1cc(/C=C(\C#N)C(N)=S)cc(C(C)(C)C)c1O | · | i
120 | Cc1ccc(C(=O)Nc2nnc(-c3cccs3)s2)cc1C | >57 | i

Later entries.
item | compound | Bst PK mod | TsaE inh
121 | O=C(c1ccco1)c1cn(CC(=O)N2CCCc3ccccc32)c2ccccc12 | >57 | i
122 | COC(=O)CC(=O)CSc1nc2c(cc1C#N)CCCCC2 | i | i
123 | O=C(CSc1nnc(CNC(=O)c2ccco2)o1)NC1CCCC1 | >57 | i
124 | Cc1ccc2[nH]c(=O)c(C(c3nnnn3CCc3ccccc3)N3CCOCC3)cc2c1 (centres undefined) | >57 | i
125 | O=S(=O)(Cc1ccccc1)N1CCc2ccccc2C1 | · | i
